CDC25B-CDK2 inh: human CDC25B-CDK2/CyclinA binding inhibition. HTRF CDC25B-CDK2/CyclinA binding, anti-His/anti-Flag; active compounds read high. z-score (no concentration beside the values). actives 0.72% (n = 94,000). AID 1259370;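 note: score is relative to mean and SD of negative controls; strong numbers were not always called active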
HIV TAR-Tat: HIV-1 TAR-Tat binding disruption; HIV-1 TAR RNA, Tat peptide displacement FRET; active compounds read high; z-score (no concentration beside the values); actives 0.6% (n = 100,000);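 note: score is relative to mean and SD of negative controls; some compounds called inactive have numbers as strong as hits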
Starred values were filed as active, the others as inactive; nt = not tested or not shown.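 Rule for the calls: active = z-score from 3 up in half or more of its runs; inactive = the rest.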

SMILES | CDC25B-CDK2 inh | HIV TAR-Tat
CC(=O)N1CCSc2ccc(S(=O)(=O)NC3CCCCC3)cc21 | nt | 1.98
CCCOc1ccc(C2C(C(=O)OC(C)C)=C(C)Nc3nc4ccccc4n32)cc1 (configuration not stated) | -2.07 | 0.92
CSc1nc2n(n1)C(c1ccc(C)cc1)C1=C(CCCC1=O)N2 (configuration not stated) | -1.43 | 1.79
Cc1ccc(Cn2cc3c(=O)n(Cc4ccccc4)nc-3c3ccccc32)cc1 | nt | 0.12
O=C(Cn1cnc2ccccc2c1=O)NCC(=O)N1CCOCC1 | nt | -0.99
COc1ccc(OC)c(NC(=O)C2CCCN(c3ncnc4c3nc3n4CCCCC3)C2)c1 (configuration not stated) | nt | 0.55
COC(=O)C1Cc2c([nH]c3ccccc23)C(C)N1 (configuration not stated) | 1.27 | -1.95
COc1ccc(NC(=S)Nc2ccc(OC)cc2)cc1 | -0.67 | nt
COC(=O)c1ccc(CSc2ccccc2N)cc1 | -1.86 | nt
CCCCNc1ncnc2c1sc1nc(N3CCCC3)c3c(c12)CC(C)(C)OC3 | -1.62 | 0.9
CSc1nc(C)nc(N)c1C#N | -1.18 | nt
COCCCNC(=O)Nc1c[nH]c(=O)[nH]c1=O | nt | 1.94
CSc1nnc(NCc2cccc(Cl)c2)s1 | -1.57 | nt
CC(=O)C(C)(C)OC(=O)NCCc1ccccn1 | -1.02 | nt
COc1ccc(C(=O)Oc2ccc3c4c(c(=O)oc3c2)CCCC4)cc1 | -0.03 | nt
O=c1oc(Cc2ccccc2)nc2scc(-c3ccccc3)c12 | 0 | 0.84
CC(NC(=O)Nc1cccs1)c1ccccc1 (configuration not stated) | -0.19 | -3.81
Cc1[nH]nc(NCCc2ccccc2)c1[N+](=O)[O-] | 0.43 | -0.16
O=C1Nc2ccccc2/C1=C/c1sccc1Oc1ccccc1 | -1.42 | nt
O=C(NCc1c(-n2cccc2)sc2c1CCCC2)Nc1ccccc1Br | -1.39 | 0.86
O=C1c2ccccc2C(Nc2ccc3c(c2)OCCO3)N1c1ccc(Cl)cc1 (configuration not stated) | 1.04 | 1.23
Cc1c(C(=O)NCCCN2CCCCC2C)sc2nc3n(c(=O)c12)CCCC3 (configuration not stated) | nt | 0.91
CC1CCCN(c2nn3c(=O)c(C(=O)N4CCN(c5ccccc5F)CC4)cnc3s2)C1 (configuration not stated) | nt | -0.03
Cc1c(C#N)c(NC(=O)c2cccs2)n(CC2CC2)c1C | -1.28 | nt
CCOC(=O)c1c(NC(=O)c2cccs2)sc(C)c1C | -0.09 | 3.28
Cc1ccc(C)c(Cn2cccc2CNC(=O)NCCC(C)C)c1 | nt | 0.82
COc1ccc(-c2csc(Nc3ccccn3)n2)cc1 | -1.59 | 1.66
O=S(=O)(Nc1ccc(-c2noc(COc3ccc(F)cc3)n2)cc1)c1cccs1 | nt | 0.09
Cc1cc(=O)n2c(n1)NC(=NCc1ccco1)NC2c1ccc(Cl)cc1 (configuration not stated) | nt | 1.28
CS(=O)(=O)Nc1cccc(C2=NN(C(=O)c3cccs3)C(c3cccc(F)c3)C2)c1 (configuration not stated) | -3.18 | nt
O=S(=O)(NCC(c1ccccc1)N1CCC(O)CC1)c1ccc(Cl)cc1 (configuration not stated) | -1.19 | 1.8
CCCCNC(=S)NNC(=O)c1ccncc1 | -2.07 | nt
Cc1ccc(C2NC(=O)c3c(sc4c3CCN(C)C4)N2)c(O)c1 (configuration not stated) | 1.97 | -2.31
O=C(Cn1c(=O)oc2ccccc21)NCc1cccnc1 | nt | -0.05
Cc1ccc2c(c1)-c1cc(C)nn1C(c1ccc3c(c1)OCO3)N2 (configuration not stated) | -1.17 | 0.31
O=C(O)Cn1nnc(-c2ccccc2)n1 | -0.14 | 0.84
O=C(c1cnn2c(C(F)(F)F)cc(-c3cccs3)nc12)N1CCCC1c1cccs1 (configuration not stated) | 2.11 | 0.08
COc1ccc(C2C3=C(CC(C)(C)CC3=O)Nc3n[nH]c(-c4ccccc4)c32)cc1OC (configuration not stated) | nt | 0.57
O=C1c2ccccc2C(Nc2ccc(S(=O)(=O)N3CCOCC3)cc2)N1c1ccccn1 (configuration not stated) | 0.71 | 0.05
Cc1ccc(C(C)C)c(OCCSc2ncnc3nc[nH]c23)c1 | -0.47 | 0.69
Cc1ccc(Nc2nc3ccccc3c3nncn23)cc1C | -0.67 | -0.34
CCc1noc2nc(C)nc(N3CCCC(C(=O)NCCc4cccs4)C3)c12 (configuration not stated) | nt | 1.53
CCc1nnc(NC(=O)CSc2nnc(Cc3cccn3C)n2C)s1 | -0.64 | 0.09
CC(C(=O)OCc1cccc(Br)c1)N1C(=O)C(=O)c2ccccc21 (configuration not stated) | -0.56 | 0.54
COc1ccc(C2CC(=O)C3=C(C2)OC(N)=C(C#N)C3c2ccccc2F)cc1 (configuration not stated) | -0.8 | nt
Cc1nc2sccn2c(=O)c1NC(=O)c1ccc(Cl)cc1 | nt | 1.33
CNCCC(Oc1ccccc1OC)c1ccccc1 (configuration not stated) | -0.31 | nt
C=CCNc1nc2c(c(=O)[nH]c(=O)n2C)n1CC | -0.84 | 0.2
CCN(CC)C(=O)Cn1cnc2sc(C(=O)NCC(=O)OC)c(C)c2c1=O | -1.39 | nt
O=C(CCc1nc(CSc2nnc(-c3ccco3)o2)no1)Nc1ccccc1 | nt | -0.14
CC1=NN(C(=O)c2cc(O)cc(O)c2)C(O)(C(F)(F)F)C1 (configuration not stated) | -1.99 | nt
COc1cc2c(=O)n(Cc3ccco3)c(=O)n(CC(=O)c3cccc(Br)c3)c2cc1OC | -0.63 | 1.67
CCS(=O)(=O)NCc1cccn1Cc1ccccc1C | nt | 1.07
Cc1cc(C)n(-c2cc(NCc3ccccc3C)ncn2)n1 | nt | 0.91
CC(=O)N[C@@H]1[C@@H](C(O)[C@H](O)CO)O[C@](O)(C(=O)O)C[C@@H]1O (some centres not stated) | nt | 0.83
COC(=O)c1c(C)[nH]c(C)c1-c1ccn[nH]1 | -3 | nt
O=C(CSCCc1ccccn1)Nc1ccc(Br)cc1F | nt | 0.7
O=C1c2cc(Br)ccc2-c2ccc(Br)cc21 | 1.28 | nt
Clc1cccc(/C=C/c2nn3c(-c4ccco4)nnc3s2)c1 | 1.22 | 0.31
CCN(c1nc(N)c(C(=O)N=C(N)N)nc1Cl)C(C)C | -0.99 | nt

Other structures:
SMILES | CDC25B-CDK2 inh | HIV TAR-Tat
Cc1cc(S(=O)(=O)[C@H]2CS(=O)(=O)C[C@@H]2NCCc2ccccc2)ccc1F | -2.51 | 1.18
COc1ncc(C(=O)NNC(=S)NC2CCCCC2)cc1[N+](=O)[O-] | -2.94 | nt
CCOc1ccc(CCNS(=O)(=O)c2cnc[nH]2)cc1OCC | -1.05 | -0.28
COCCNC(=O)NC1(C(F)(F)F)Oc2ccc(Cl)cc2O1 (configuration not stated) | 1.24 | nt
CC1(NC(=O)N2CCOCC2)CCS(=O)(=O)C1 (configuration not stated) | -1.83 | 0.26
Cc1cc(C)c(S(=O)(=O)Nc2ccc(Br)c3cccnc23)c(C)c1 | -1.02 | 0.98
CCc1nc(OCC(=O)OC)c2onc(-c3ccc(C)cc3)c2n1 | -1.98 | -0.03
C=CCN1C(=O)C2(/C(=C(/O)c3ccccc3)C(=O)C(=O)N2CCCN(C)C)c2ccccc21 (configuration not stated) | -2.04 | 0.65
CCOc1c(Nc2cccc(Br)c2)c(=O)c1=O | nt | 0.33
Cc1ccc(NS(=O)(=O)c2cc3c(cc2C)N(C)CCO3)c(C)c1 | nt | 2.02
C=CCn1c(C23CC4CC(CC(C4)C2)C3)n[nH]c1=S | -0.03 | nt
O=C(CSCc1cc(=O)n2[nH]cnc2n1)Nc1ccccc1 | nt | 0.24
COCCOC(=O)c1c(C)oc2ccc(NS(=O)(=O)c3ccc(Cl)cc3)cc12 | -2.23 | 2.4
O=C(c1ccco1)N(Cc1ccco1)C1CCS(=O)(=O)C1 (configuration not stated) | -3.06 | 0.37
O=C(NCC1CCCO1)c1sc(=S)n2c1[nH]c(=O)c1ccccc12 (configuration not stated) | nt | 1.91
COc1ccc(NS(=O)(=O)c2cc(-c3cnc(C)o3)ccc2C)cc1OC | nt | 0.36
COc1ccc(-n2nnnc2C2(Nc3ccccc3)CCCCC2)cc1 | nt | 0.82
COc1cccc(-c2noc(NCc3ccccc3OC)n2)c1 | nt | 0.12
COc1cc(/C=N/N=C2/NC(=O)C(CC(=O)Nc3ccccc3F)S2)ccc1O (configuration not stated) | -3.35 | nt
CC(Sc1ncc(S(=O)(=O)c2ccccc2)c(N)n1)C(=O)Nc1ccccc1 (configuration not stated) | nt | 1.16

Some of the entries so far, in markdown:
| structure | CDC25B-CDK2 inh | HIV TAR-Tat |
| --- | --- | --- |
| CC(Sc1ncc(S(=O)(=O)c2ccccc2)c(N)n1)C(=O)Nc1ccccc1 (configuration not stated) | nt | 1.16 |
| CCc1nnc(NC(=O)CSc2nnc(Cc3cccn3C)n2C)s1 | -0.64 | 0.09 |
| CCc1nc(OCC(=O)OC)c2onc(-c3ccc(C)cc3)c2n1 | -1.98 | -0.03 |
| COc1cc2c(=O)n(Cc3ccco3)c(=O)n(CC(=O)c3cccc(Br)c3)c2cc1OC | -0.63 | 1.67 |

Next section
SMILES | CDC25B-CDK2 inh | HIV TAR-Tat
CC1(C)CC(=O)C2=C(C1)Nc1nc(SCc3ccccc3Cl)[nH]c(=O)c1C2c1ccncc1 (configuration not stated) | 0.32 | nt
NCCCNCCSP(=O)(O)O | -0.83 | nt
N#Cc1c(-n2ncnc2-c2cccs2)sc2c1CCCCC2 | 2.03 | 2.19
O=S(=O)(NCC1CCCO1)c1ccc(N2CCCCS2(=O)=O)cc1 (configuration not stated) | nt | 2.33
O=C(CCc1nnc2ccc(NCc3ccco3)nn12)Nc1cccc(F)c1 | nt | 0.12
N#CC1=C(N)OC2=C(C(=O)CCC2)C1c1ccccc1Cl (configuration not stated) | 0.09 | nt
CCOC(=O)c1c(CN2CCOCC2)n(C)c2ccc(OC)c(S(=O)(=O)c3ccccc3)c12 | -2.2 | nt
Cn1nnnc1SCCNCc1ccc(-c2ccc(F)cc2)o1 | -1.14 | 0.04
Cn1c2ccccc2c2nnc(SCC(=O)OCN3C(=O)c4ccccc4C3=O)nc21 | -1.06 | nt
Cc1cc(NC(=O)c2c(C)oc3ncnc(N4CCOCC4)c23)no1 | nt | 0.57
COc1ccc2c(c1)C=C(C(=O)Nc1ccc(F)cc1)C=CO2 | -1 | -1.51
CC(C)(C)C1CCc2c(sc3ncc(NC(=O)c4ccc(F)cc4)c(=O)n23)C1 (configuration not stated) | -1.02 | -1.35
Cc1oc(-c2ccno2)cc1S(=O)(=O)N1CCc2ccccc2C1 | nt | -0.26
Cc1nn(C(=O)CCC(=O)NC2CCCC2)c2ccccc12 | -0.12 | -0.23
COc1cccc(NS(=O)(=O)c2ccc(-c3cc(C)no3)s2)c1 | nt | 0.89
Cc1ccc2c(c1)NC(SCC(=O)NC(C)C)=NS2(=O)=O | nt | 0.48
COc1ccc(-c2nc3c(c(=O)[nH]2)Cc2cc(C)ccc2O3)cc1OC | 0.03 | -0.28
COc1ccc(-c2nc3n(n2)C(c2ccc(OC)c(OC)c2)C2=C(CCCC2=O)N3)cc1OC (configuration not stated) | -1.5 | 0.69
Nc1c(-c2nc(-c3ccc4c(c3)OCO4)no2)nnn1-c1ccccc1 | nt | -1.36
CCCSc1nc2c(c(=O)[nH]1)C(c1ccc(C)cc1)C(C(=O)OC)=C(C)N2 (configuration not stated) | -0.43 | 0.46

Profiles as entered above. Values in the order: CDC25B-CDK2 inh, HIV TAR-Tat
Shown for `CC(C)(C)C1CCc2c(sc3ncc(NC(=O)c4ccc(F)cc4)c(=O)n23)C1` (configuration not stated) : -1.02, -1.35
Shown for `O=C(Cn1c(=O)oc2ccccc21)NCc1cccnc1` : nt, -0.05
Shown for `COCCCNC(=O)Nc1c[nH]c(=O)[nH]c1=O` : nt, 1.94
Shown for `Cc1ccc(Cn2cc3c(=O)n(Cc4ccccc4)nc-3c3ccccc32)cc1` : nt, 0.12
Shown for `Cc1ccc2c(c1)NC(SCC(=O)NC(C)C)=NS2(=O)=O` : nt, 0.48

(continued)
SMILES | CDC25B-CDK2 inh | HIV TAR-Tat
O=S(=O)(c1ccc(Cl)c2ccccc12)N1CCc2ccccc2C1 | -0.4 | nt
CC(c1ccccc1)N1CSC2=C(C#N)C(c3ccc(F)cc3)CC(=O)N2C1 (configuration not stated) | 2.96 | 2.8
O=C(Nc1cc(-c2cccc(F)c2)no1)c1cc2ccc3cccnc3c2[nH]1 | nt | 0.93
COc1ccc(-c2cc(C(F)(F)F)nc(SCC(=O)N3CCCC3)n2)cc1OC | -0.34 | 0.43
CCCCc1c(C)nn(-c2nc(C)c(C(=O)NC(C)C)s2)c1C | -0.75 | 2.08
CSC(=NCC1CC1)NC(C)(C)C | -0.57 | nt
CCC(C(=O)NC(C)c1ccc2c(c1)OCCO2)n1c2ccccc2c2nc(=O)cc(C)n21 (configuration not stated) | -0.8 | -0.81
CCOC(=O)c1c(C)[nH]c(NC(=O)N2CCOCC2)c1C | -0.99 | 0.74
O=c1c2ccccc2nnn1CSc1ncnc2sc3c(c12)CCCC3 | -0.13 | -0.91
CC(=O)c1cc(C#N)c(SCc2ccccc2F)nc1C | -0.34 | nt
Cc1ccc(CN(C(=O)c2cccs2)c2ccccn2)o1 | -1.04 | 0.53
O=C(Nc1ccc(O)cc1)c1cc2n(n1)C(C(F)(F)F)CC(c1ccco1)N2 (configuration not stated) | -0.28 | -0.57
Cc1nc(-c2ccc([N+](=O)[O-])cc2)cs1 | -2.08 | nt
O=C(COc1ccc(Cl)cc1)OCc1cc(=O)n2nc(C3CC3)sc2n1 | nt | 0.57
Cc1ccc2nc(NCCc3ccc(Cl)cc3)c3nncn3c2c1 | 1.69 | 1.65
CC(=O)N1N=C(c2ccc(NC(=O)C3CCCCC3)cc2)OC1c1ccc([N+](=O)[O-])o1 (configuration not stated) | nt | 1.71
CCN1C(=O)C(O)(CC(=O)c2ccc(Cl)cc2)c2ccccc21 (configuration not stated) | -0.98 | 1.23
C=CCOC(=O)C1=C(C)Nc2nc(SCC=C)[nH]c(=O)c2C1c1ccc(C(=O)OC)cc1 (configuration not stated) | -2.23 | 2.63
CCc1ccc(S(=O)(=O)NCCc2csc(-c3ccc(F)cc3)n2)s1 | nt | 0.92

Screening results: PubChem, Center for Chemical Genomics, University of Michigan
